# Rango complex inh: qHTS Assay for Inhibitors of Rango (Ran-regulated importin-beta cargo) - Importin beta complex formation | Potency, µM (series often up to 92.2 µM), inactives show at the highest dose inhibition of complex formation | hit rate 0.031% among 340,000 | AID 540263, 2011 | Rango CFP/YFP FRET sensor + importin beta, 45 min; active = rising FRET ratio curve, often small or poorly fitted; inconclusive = mostly compound fluorescence or quenching in the first reads; inactive = flat curves in all reads;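 also: potency is read from the fitted curve at half-maximal effect; 0% = DMSO wells and 100% = buffer wells lacking importin beta; nearly all actives have a fitted effect of over 15% in size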
#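 FRET biosensor (snurportin 1 IBB flanked by EYFP and cerulean), 50 nM, with compound 5 min, then 0.125 microM importin beta in PBS, 1 mM DTT, 0.02% Tween-20, 0.1% BSA. CFP/YFP ratio read after 45 min at room temperature; pre-read flags interference.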
# Rango dissoc inh: qHTS Assay for Inhibitors of RanGTP induced Rango (Ran-regulated importin-beta cargo) - Importin beta complex dissociation; Snurportin-1 (Homo sapiens) + GTP-binding nuclear protein Ran (Homo sapiens) + Importin …; Biochemical FRET Rango-importin beta, RanGTP-induced dissociation; Potency, µM (titrated, usually from 46.1 µM), without a hit: at the highest dose activity change, negative = inhibition; hit rate 0.071% among 340,000; AID 540253, 2011; active means falling FRET ratio curve, often poorly fitted, with flat reads before Ran was added; inconclusive means other falling curves, or compound fluorescence or quenching; inactive means flat or rising ratio curve;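 also: potency is read from the fitted curve at half-maximal effect; % of control where 0% means no effect; nearly all actives have a fitted effect of over 45% in size; -100% = wells without RanGTP and RCC1; the record marks most hits as doubtful in a second field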
#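 Rango (0.1 uM)–importin beta (0.25 uM) complex; RanGTP-RCC1 trigger; 45 min RT; CFP/YFP FRET read.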
# miR-21 FLuc: qHTS Assay for Modulators of miRNAs and/orActivators of miR-21 | HeLa miR-21 FLuc reporter, luciferase, 48 h | Potency, µM (top dose mostly 38.3 µM), inactives show at the highest dose reporter change, positive = more light | 340,000 tested, under 10 active; active = well fitted rising curve with a large enough effect; inconclusive = small, poorly fitted or top-dose-only effect; inactive = no such curve, though single readings can be large or run the other way;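 also: % of control where 0% means no effect; miR-21 action dims this reporter so a rising signal means less miR-21 action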
#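 HeLa miR-21-FLuc reporter line, endogenous miR-21; 2000 cells/well in DMEM/10% FBS; compound titration up to ~40uM final, 48 h, 37 degree Celsius; luciferase detection reagent, 15 min lysis, CCD luminescence.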
# GLA inh pH 4.5: qHTS Assay for Inhibitors of Human alpha-Galactosidase at pH 4.5. purified enzyme, 4-MU-alpha-Gal fluorescence, pH 4.5. 230,000 tested, under 10 active. Alpha-galactosidase A (Homo sapiens), P06280. AID 1467, 2008. activity change, negative = inhibition, % at 105 µM; inconclusive = small, poorly fitted or top-dose-only inhibition, or a rising curve; inactive = flat fitted curve, though single readings scatter; no compound was filed as active;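 also: 0% = full activity with enzyme and -100% = basal without enzyme; dose as in the result columns while the protocol names 77 µM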
# Target sequence (P06280 whole entry, looked up): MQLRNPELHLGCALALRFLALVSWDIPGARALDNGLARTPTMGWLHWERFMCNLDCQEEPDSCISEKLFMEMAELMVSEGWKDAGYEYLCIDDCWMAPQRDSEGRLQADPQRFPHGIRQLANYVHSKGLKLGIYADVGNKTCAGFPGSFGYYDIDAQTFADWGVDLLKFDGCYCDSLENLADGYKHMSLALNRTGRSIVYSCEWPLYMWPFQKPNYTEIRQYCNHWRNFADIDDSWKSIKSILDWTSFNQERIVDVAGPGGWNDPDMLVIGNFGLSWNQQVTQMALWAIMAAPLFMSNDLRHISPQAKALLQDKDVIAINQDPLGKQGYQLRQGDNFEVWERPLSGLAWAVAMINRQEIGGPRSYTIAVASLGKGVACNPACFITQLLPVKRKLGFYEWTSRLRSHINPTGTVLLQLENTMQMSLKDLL
# * hit, by the source's call; ? = inconclusive; . = no result given. This is a subset. The share of hits here may be higher or lower than overall.
SMILES,Rango complex inh,Rango dissoc inh,miR-21 FLuc,GLA inh pH 4.5
CSc1nnc(-c2ccc(NC(N)=S)cc2)o1,?,19%,-21%,5
COc1cc(C(=O)NCc2nnc(SCC(=O)NCc3ccccc3)o2)cc(OC)c1OC,?,-21%,1%,-1
CSc1cc(-c2ccccc2)n(C)c(=O)c1C#N,-0.9%,13%,4%,0
COc1ccc(/C=N\N=C2/SC(CC(=O)O)C(=O)N2c2ccc(O)cc2)cc1 (configuration not stated),-1.0%,14%,-1%,3
COc1ccc(C(=O)COC(=O)Cn2cnc3c2c(=O)n(C)c(=O)n3C)c(OC)c1,2.9%,2%,-2%,.
Cc1onc(-c2ccccc2)c1-c1nc2ccccc2c(=O)o1,-0.5%,-1%,7%,-14
CCN(CC)CCn1c(NCc2cc(OC)ccc2OC)nc2ccccc21,6.1%,31%,-4%,-12
O=C(NCc1cnc2ccccn12)C1CCC(=O)N(Cc2cccc(F)c2)C1 (configuration not stated),-1.6%,0%,0%,.
COCc1ccc(C(=O)Nc2ccccc2C(=O)NCc2cccnc2)cc1,2.0%,6%,-7%,.
O=C(c1cccc(OC2CCN(Cc3ccc(F)cc3)CC2)c1)N1CCCC1,1.0%,13%,3%,.
CC(Nc1ccc(Cl)c(Cl)c1)C(=O)NN (configuration not stated),1.8%,2%,1%,-3
Cc1ccc2c(CN3CCN(CCO)CC3)cc(=O)oc2c1C,-3.2%,15%,-8%,14
COc1cccc(CC2(CO)CCN(S(=O)(=O)c3ccc(OC)cc3OC)CC2)c1,-0.9%,?,0%,.
COc1ccc(C(=O)O)cc1NC(=S)NC(=O)Cc1ccc(Cl)cc1,-0.2%,-2%,0%,.
CCN(CC)CCCNC(=O)CSc1nc(-c2ccc(F)cc2)cc(C(F)(F)F)n1,3.4%,7%,0%,7
CCSc1ccc(/C(N)=N/OC(=O)c2cccs2)cn1,3.4%,2%,-59%,.
O=C(N/N=C/c1cccc2ccccc12)c1ccccc1Cl,1.9%,0%,-35%,.
CC1CCCN(CCCOc2ccc([N+](=O)[O-])cc2)C1 (configuration not stated),-1.9%,-5%,2%,5
CC1Cc2ccccc2N1C(=O)CSc1nnc(-c2ccc(S(=O)(=O)N3CCOCC3)cc2)n1C (configuration not stated),-0.2%,11%,-2%,-11
CCCCn1c(-c2cc(Cl)ccc2OC)n[nH]c1=S,2.6%,9%,-1%,7
COC(=O)c1cc(C)sc1NC(=O)c1cccnc1,-3.6%,22%,2%,2
CCOc1cc(C(=S)N2CCN(C)CC2)ccc1OCC(=O)N1CCCC1,-5.1%,26%,.,.
Cc1cccc(NC(=O)CN2CCN(C(=O)CNC(=O)Cc3cccc4ccccc34)CC2)c1C,-1.1%,1%,.,.
CC1CCCC(C)N1c1nnc(N)s1 (configuration not stated),-1.3%,12%,-12%,7
Cc1cc(C(F)F)n2nc(C(=O)Nc3sc4c(c3C#N)CCC4)nc2n1,0.9%,-9%,-3%,-8

# Next section
SMILES,Rango complex inh,Rango dissoc inh,miR-21 FLuc,GLA inh pH 4.5
CC1CCCN(C(=O)c2ccc3c(c2)OCO3)C1 (configuration not stated),2.2%,-11%,-11%,.
Cc1ccc(S(=O)(=O)NCCC(=O)Nc2nccs2)cc1,-1.6%,11%,3%,0
CC(=O)Oc1cc2c(cc1Cl)C1(CC(c3ccccc3Cl)O2)CC(C)(C)NC(=S)N1 (configuration not stated),-1.3%,19%,26%,2
N#C/C(=C(/O)COC(=O)Cc1c[nH]c2ccccc12)c1nc2ccccc2[nH]1,-1.0%,2%,-14%,4
COCCC1CCCCN1C(=O)c1ccc2nc(Cc3ccccc3F)oc2c1 (configuration not stated),-0.4%,5%,-62%,.
Cc1ccc(S(=O)(=O)Nc2ccc(NC(=O)CN3CCCCC3)cc2)cc1,-1.2%,-9%,-4%,-3
COc1ccc(S(=O)(=O)N2CCN(Cc3ccccc3[N+](=O)[O-])CC2)cc1,3.9%,-6%,.,.
Cc1nn(CC(=O)OCCOc2ccc(Br)cc2)c(C)c1[N+](=O)[O-],-4.0%,14%,-3%,-1
Fc1ccc2nc(N3CCCCC3)sc2c1,4.0%,20%,-51%,-4
O=C(Cc1c(F)cccc1Cl)Nc1nc2ccccc2s1,-0.1%,-9%,-40%,0
CC(C)NC(=O)NC(=O)COc1ncnc2sccc12,-3.9%,-25%,0%,8
CCCCC(=O)Nc1ccc(C(=O)NCCCn2ccnc2)cc1,-4.5%,1%,24%,0
CCCCC(=O)Nc1ccc(N2CCCC2)cc1,-1.3%,-9%,.,.
COc1ccc(CNC(=O)COc2ccc(S(=O)(=O)NC(C)C)cc2)cc1,-1.7%,-8%,-2%,9
CCCCCCCC[n+]1cccc(C(=O)N(CC)CC)c1,1.0%,0%,-3%,3
Cc1nc(NS(=O)(=O)c2ccc(Cl)s2)c2c3c(sc2n1)CCCC3,0.0%,0%,0%,5
Cc1cc(C(=O)Nc2cccc(O)c2)c(C)o1,1.7%,-2%,-23%,-5
O=C(O)C1CCCN(C(=O)NCc2ccccc2)C1 (configuration not stated),0.5%,-9%,-5%,-1
COc1cc(NC(=S)NCCC(c2ccccc2)c2ccccc2)c(OC)cc1Cl,7.6%,36%,15%,-1
O=C1CCCc2ccccc2N1Cc1ccc(Cl)cc1Cl,-2.1%,5%,2%,-3
COCCN(C(=S)Nc1ccc(C(C)C)cc1)C(C)c1cccs1 (configuration not stated),4.2%,10%,-15%,-7
ClCc1c2ccccc2cc2ccccc12,6.7%,-1%,.,.
COc1ccc(NC(=O)Nc2ccc(C(=O)N3CCOCC3)cc2)cc1,4.1%,-6%,-2%,-9
O=C1C2=C(CCCC2)C(=O)N1c1cccc(OCCBr)c1,2.8%,-17%,-5%,2
CCOC(=O)c1ccccc1NC(=O)c1cccc(F)c1,1.7%,1%,-2%,5

# Entries of single compounds, looked up by structure.
# Profile of CC(C)NC(=O)NC(=O)COc1ncnc2sccc12 : Rango complex inh: -3.9%; Rango dissoc inh: -25%; miR-21 FLuc: 0%; GLA inh pH 4.5: 8
# Profile of O=C(O)C1CCCN(C(=O)NCc2ccccc2)C1 (configuration not stated) : Rango complex inh: 0.5%; Rango dissoc inh: -9%; miR-21 FLuc: -5%; GLA inh pH 4.5: -1

# Continued:
SMILES,Rango complex inh,Rango dissoc inh,miR-21 FLuc,GLA inh pH 4.5
O=S(=O)(c1ccc(F)cc1)c1nc(-c2ccco2)oc1Nc1ccc(F)cc1,-3.7%,-7%,-6%,1
Cc1ccc(S(=O)(=O)NCCC(=O)N2CCC(Cc3ccccc3)CC2)cc1,-3.3%,-7%,.,.
COc1ccc(C/C(N)=N/OC(=O)CCc2ccccc2)cc1,4.7%,-11%,-7%,.
Cc1ccc(C(=O)OCC(=O)NC(C)c2ccccc2)s1 (configuration not stated),0.8%,-12%,.,.
COc1cc(CNn2cnnc2)ccc1OCC(=O)NC(C)(C)C,-1.7%,9%,0%,-2
COc1ccc(C)cc1N(C(=O)CNC(=O)c1ccco1)C(C(=O)NC1CCCC1)c1cccnc1 (configuration not stated),1.8%,2%,-7%,6
CCc1noc(C)c1C(=O)Nc1ccccc1N1CCOCC1,-2.7%,11%,.,.
COc1cccc(OCCn2cc(C(=O)c3ccco3)c3ccccc32)c1,-3.6%,8%,6%,-11
CC(Sc1nc(N(C)C)nc(N2CCOCC2)n1)C(=O)Nc1ccccc1 (configuration not stated),-0.5%,0%,-22%,-8
CCC(C)(C)NC(=O)CN(CC1CCCO1)C(=O)CNS(=O)(=O)c1ccccc1 (configuration not stated),-0.3%,-18%,0%,.
CCC(C(=O)NC1CCCCCC1)c1ccccc1 (configuration not stated),-2.4%,1%,.,.
CCCCN(C(=O)c1ccc(S(=O)(=O)N2CCOCC2)cc1)C1CCS(=O)(=O)C1 (configuration not stated),2.8%,8%,.,.
CCOC(=O)c1[nH]c(C)c(C(=O)N2CCN(c3cccc(Cl)c3)CC2)c1C,-4.5%,8%,5%,-28
Cc1cc(CNC(=O)c2ccc3c(c2)OCO3)c2ccccc2n1,-2.4%,1%,15%,0
COc1ccccc1N(CC(=O)Nc1ccccc1C(=O)N1CCCC1)S(C)(=O)=O,-5.9%,-20%,5%,.
COc1ccc(CC(=O)Nc2ccc(N3CCOCC3)cc2)cc1OC,-0.2%,2%,-2%,-10
CCn1cc(CN2CCCC(CNS(=O)(=O)Cc3ccccc3)C2)cn1 (configuration not stated),0.4%,-9%,1%,7
CC(C(=O)Nc1nc2ccccc2[nH]1)N1C(=O)C2CC=CCC2C1=O (configuration not stated),-4.2%,-14%,-1%,4
COC(=O)c1nc(N)sc1C,0.0%,-4%,0%,-6
Cc1ccn2c(=O)nc(SCC(=O)NC3CCCCC3)nc2c1,-5.4%,-2%,.,.
Cc1ccc(-c2csc3ncnc(SCC(=O)NCc4ccc5c(c4)OCO5)c23)cc1,?,8%,1%,13
CC[n+]1ccc(/C=C/c2ccc(N(C)C)cc2)c2ccccc21,6.2%,-7%,?,2
Cc1c(Cl)c([N+](=O)[O-])nn1CCCC(=O)Nc1cc(Cl)ccc1Cl,-1.2%,-10%,-11%,-3
Cc1cccc(Nc2nc(-c3ccc4c(c3)OCCO4)cs2)c1,1.2%,3%,-47%,-1
C=CCSc1nc2c(C(=O)OCC)nnn2c2ccccc12,-0.6%,6%,-3%,.

# An excerpt of these results, with tabs:
mol	Rango complex inh	Rango dissoc inh	miR-21 FLuc	GLA inh pH 4.5
COc1ccc(C/C(N)=N/OC(=O)CCc2ccccc2)cc1	4.7%	-11%	-7%	.
Cc1ccc(C(=O)OCC(=O)NC(C)c2ccccc2)s1 (configuration not stated)	0.8%	-12%	.	.
COc1cc(CNn2cnnc2)ccc1OCC(=O)NC(C)(C)C	-1.7%	9%	0%	-2

# The results go on.
SMILES,Rango complex inh,Rango dissoc inh,miR-21 FLuc,GLA inh pH 4.5
COc1ccc(CCNC(=O)c2nn(C)cc2Cl)cc1,-1.0%,1%,-17%,-9
Cc1ccc(NC(=O)COCC(=O)Nc2ccc(C)cc2)cc1,2.6%,-9%,-10%,.
Cc1ccc(S(=O)(=O)N/N=C/c2cnn(C)c2C)cc1,0.5%,1%,-1%,4
COc1cc2c(cc1OC)C(COc1ccc([N+](=O)[O-])cc1)NCC2 (configuration not stated),1.7%,1%,-11%,.
COc1ccc(CC(=O)NCCS(=O)(=O)N2CCN(c3ccccc3OC)CC2)cc1,3.9%,-5%,.,.
CCOC(=O)NC(=O)/C(C#N)=N/Nc1c(F)cccc1F,-0.9%,-1%,-5%,-8
O=C(CSc1nnc(-c2cccnc2)n1Cc1ccco1)c1ccc(Cl)cc1,-0.7%,-1%,-5%,0
CCCCCCc1ccc(OCC(=O)O)cc1OCC(=O)O,-0.4%,1%,1%,4
O=C(NCCN1CCCCC1)/C(=N\O)c1ccccc1,1.0%,-6%,0%,-3
O=[N+]([O-])c1cn(Cc2ccc(Cl)cc2)cn1,-4.1%,-7%,0%,8
COc1ccc(S(=O)(=O)N(C)CC(=O)Nc2ccc3c(c2)OCO3)cc1OC,1.2%,-6%,-17%,0
O=C1NCCN(CC2CCN(CC3CCCC3)CC2)C1=O,-2.6%,3%,.,.
COc1ccc(CNC(=O)CC2C[C@H](C(=O)N(C(C)C)C(C)C)[C@@]3(C)c4[nH]c5ccccc5c4CCN3C2=O)cc1OC (some centres not stated),-0.8%,-24%,.,.
COc1ccc(N2CCN(C(=O)[C@@H](NC(=O)c3ccccc3Cl)C(C)C)CC2)cc1,3.6%,-9%,-1%,.
CC(C)(C)C(=O)NNC(=O)c1cc2sccc2s1,1.2%,0%,-2%,0
O=S(=O)(Nc1nccs1)c1cnc(Cl)c(Br)c1,-2.1%,6%,6%,-1
O=C(NNC(=O)c1ccc(NC(=O)c2ccccc2)cc1)c1ccccc1,-0.8%,1%,-18%,-5
O=C(NCCCN1CCCC1)c1ccc(CSCc2cccc(Cl)c2)o1,3.3%,8%,-4%,4
COc1ccc(C(=O)Nc2cc([N+](=O)[O-])ccc2N2CCN(C)CC2)cc1,-5.6%,1%,-5%,-5

# Compound activity: PubChem, National Center for Advancing Translational Sciences (NCATS)
